Cruzain inh Det: inhibitors of Trypanosoma cruzi cruzain with detergent; P25779; purified cruzain, Z-FR-AMC fluorescence, 0.01% Triton; Potency, µM, for the others: max response, negative = inhibition, actives largely listed as inhibitors; 200,000 compounds, 0.43% hits; AID 1478; active = well fitted curve in the direction sought with a large enough effect; inconclusive = small, poorly fitted or top-dose-only effect, or another doubt; inactive = no such curve, though single readings can be large; an effect the other way counts as inactive or inconclusive;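 also: plate controls were neutral wells for no effect and buffer without enzyme for full effect; nearly all actives have a fitted effect of over 40% in size; top concentration of the series not given in the record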
Target sequence (P25779 123-467 limits assumed): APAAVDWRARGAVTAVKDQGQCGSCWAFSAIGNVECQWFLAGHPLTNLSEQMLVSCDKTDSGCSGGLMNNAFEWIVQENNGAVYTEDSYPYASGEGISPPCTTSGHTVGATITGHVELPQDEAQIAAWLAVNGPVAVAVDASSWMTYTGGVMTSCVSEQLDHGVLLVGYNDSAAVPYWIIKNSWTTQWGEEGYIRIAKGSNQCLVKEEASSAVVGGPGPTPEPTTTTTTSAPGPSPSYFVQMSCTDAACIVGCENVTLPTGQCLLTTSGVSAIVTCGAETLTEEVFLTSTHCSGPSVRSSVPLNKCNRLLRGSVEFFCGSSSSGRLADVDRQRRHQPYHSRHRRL
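Cysteine protease activity tested under reducing, mildly acidic conditions (100 mM sodium acetate pH 5.5, 5 mM DTT) plus 0.01% Triton X-100. Cruzain 1.5 nM; substrate Z-FR-AMC 2 uM; 15 min compound preincubation at room temperature.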
NS1 inh: inhibitors of influenza NS1 protein function | S. cerevisiae slowed by influenza A NS1, growth recovery by OD600 | Potency, µM (top dose mostly 46.1 µM), for inactives: at the highest dose activity, positive = more growth | 270,000 compounds, 0.4% hits; also: actives are rising curves; nearly all actives have a fitted effect of over 50% in size
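Compounds were scored for reversing the slow growth caused by influenza A NS1 in S. cerevisiae, measured by optical density at 600 nm. Assay medium contained 2% galactose at pH 6.0; NS1-free yeast of the same strain were the positive control.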
RE007 growth inh: less growth of the S. pombe RE007 Vpr strain | S. pombe RE007 Vpr strain, BacTiter-Glo ATP luminescence, 24 h; control for the full effect not named in the record | Potency, µM (doses to about 92.2 µM), without a hit: at the highest dose activity change, negative = less growth | 360,000 compounds, 0.21% hits | AID 651644; active = well fitted falling curve with a large enough effect; inconclusive = small, poorly fitted or top-dose-only effect; inactive = no such curve, though single readings can be large or run the other way;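 also: % is scaled to controls: 0 for no effect and ±100 for the full control effect; nearly all actives have a fitted effect of over 50% in size; the assay follows cell death caused by Vpr and the record does not say whether a fall means rescue or toxicity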
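Fission yeast strain RE007, carrying one chromosomally integrated HIV-1 vpr copy, was seeded at OD 0.01 in PMG+AL medium with 23 nL pinned compound. After 24 h at 30 °C and 99% humidity, viability was read by BacTiter-Glo luminescence.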
Cruzain inh noDet: blocks cruzain activity in detergent-free assay. P25779. purified cruzain, Z-FR-AMC fluorescence, no detergent. Potency, µM, for inactives: max response, negative = inhibition, usual class: inhibitors. 200,000 compounds, 2.3% hits; active = well fitted curve in the direction sought with a large enough effect; inconclusive = small, poorly fitted or top-dose-only effect, or another doubt; inactive = no such curve, though single readings can be large; an effect the other way counts as inactive or inconclusive;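 also: plate controls were enzyme without inhibitor for no effect and buffer without enzyme for full effect; nearly all actives have a fitted effect of over 40% in size; top concentration of the series not given in the record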
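Detergent-free condition (0.00005% Triton X-100) in acetate buffer pH 5.5 with DTT. 1.5 nM enzyme and compound were pre-mixed 15 min, then 2 uM Z-FR-AMC substrate added; reaction progress from fluorescence change between first and third reads (60 s).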
Marburg entry inh: Marburg virus entry inhibition; Marburg virus pseudotyped entry inhibition, cell reporter; control for the full effect not named in the record; about a third of the inactives were read at about 46 µM; Potency, µM (doses to about 37.8 µM), inactives show at the top dose activity change, negative = inhibition, usual class: inhibitors; 300,000 compounds, 1.8% hits; active = well fitted inhibition curve with a large enough effect; inconclusive = small, poorly fitted or top-dose-only effect, or effect the other way; inactive = flat fitted curve, though single readings scatter; tested in HEK293 cells; about a fifth of its hits are not listed in these tables; also: % is scaled to controls: 0 for no effect and ±100 for the full control effect; luciferase read-out
2A StopGo: FMDV 2A StopGo reporter, luciferase signal; human cells with a luciferase reporter of 2A StopGo recoding; control for the full effect not named in the record; Potency, µM (top dose mostly 57.9 µM), for inactives: top-dose signal change, negative = less light; 410,000 compounds, 1.2% hits; AID 1159524; active = well fitted falling curve with a large enough effect; inconclusive = small, poorly fitted or top-dose-only effect; inactive = no such curve, though single readings can be large or run the other way; tested in HEK293T cells; also: % is scaled to controls: 0 for no effect and ±100 for the full control effect; nearly all actives have a fitted effect of over 45% in size; luciferase light after 4 h
Lassa entry inh: blocks Lassa virus binding to or entry into cells | 300,000 compounds, 1.2% hits | AID 540256 | Lassa virus pseudotype entry inhibition, cell reporter; control for the full effect not named in the record | Potency, µM (series often up to 37.9 µM), for inactives: at the highest dose activity change, negative = inhibition, usual class: inhibitors; active means well fitted inhibition curve with a large enough effect; inconclusive means small, poorly fitted or top-dose-only effect, or effect the other way; inactive means flat fitted curve, though single readings scatter; tested in HEK293 cells; also: % is scaled to controls: 0 for no effect and ±100 for the full control effect; nearly all actives have a fitted effect of over 50% in size; luciferase read-out
SARS PLP yeast: blocks SARS-CoV papain-like protease in a yeast assay; Potency, µM (doses to about 32.9 µM), for the others: at the highest dose activity, positive = growth rescue; S. cerevisiae expressing SARS-CoV PLpro, growth rescue; control for the full effect not named in the record; 330,000 compounds, 0.19% hits; also: 0% is about no effect; nearly all actives have a fitted effect of over 55% in size; growth read by luminescence after 48 h
Starred values were filed as active, the others as inactive; ? = inconclusive; nt = no result given; [ ] = remark or other dose. Unless noted, calls follow the shape of the dose curve; as a rule, active means well fitted rising curve with a large enough effect; inconclusive means small, poorly fitted or top-dose-only effect; inactive means no such curve, though single readings can be large or run the other way. Potency is read from the fitted curve at half-maximal effect.

SMILES	Cruzain inh Det	NS1 inh	RE007 growth inh	Cruzain inh noDet	Marburg entry inh	2A StopGo	Lassa entry inh	SARS PLP yeast
COc1ccc(OC)c(S(=O)(=O)N2CCC3(CC2)OCCN3S(=O)(=O)c2cccs2)c1	nt	nt	-9%	nt	15%	29%	?	0%
CCCc1nn2c(=O)cc(COc3ccc(/C=C(\C#N)C(=O)Nc4ccccc4)cc3)nc2s1	0.2%	nt	nt	7%	5%[46.1 µM]	-3%	12%[46.1 µM]	nt
O=C(O)CSc1c(-c2ccccc2)c2cc(Cl)ccc2[nH]c1=O	-3.0%	27%	2%	6%	19%	2%	9%	?
COc1ccc(-c2nnc(SC)nc2-c2ccc(OC)c([N+](=O)[O-])c2)cc1[N+](=O)[O-]	nt	nt	13%	nt	12%[46.1 µM]	11%	?	nt
CCCCn1c(N)c(NCC(C)C)c(=O)[nH]c1=O	-2.9%	-4%	-1%	-1%	0%	-13%	16%	11%
CCc1nnc(NC(=O)CSc2nc3ccc(OC)cc3[nH]2)s1	nt	4%	-3%	nt	3%[46.1 µM]	8%	-1%	0%
CC(=O)/C(N=Nc1ccc(-n2ccc(C(F)(F)F)n2)cc1)=C(\C)O	nt	1%	-13%	nt	5%[14.2 µM]	5%	-7%	1%
Cc1noc(-c2ccc(-c3noc(-c4cccc(Cl)c4)n3)cc2)n1	0.0%	nt	nt	-17%	nt	-14%	-2%[46.1 µM]	nt
COc1ccccc1CN1CC(C(=O)NCc2ccc(C)c(F)c2)CCC1=O (stereo unspecified)	nt	0%	-4%	nt	15%[46.1 µM]	7%	13%[46.1 µM]	-1%
CC(=O)c1cccc(NC(=S)NC(=O)c2ccc(Br)cc2)c1	-2.7%	14%	5%	-8%	14%	37%[activator]	-8%	9%
Cc1ccc(C(=O)Nc2c(C)nc3ccccn3c2=O)cc1	-3.4%	nt	nt	-24%	nt	26%	?	nt
N#Cc1c(N2CCN(C(=O)c3ccccc3Cl)CC2)nc(-c2ccccc2)c2c1CCCC2	-15%	27%	25%	?	?	24%	?	3.5µM*
OC(c1ccc(OCc2ccccc2)cc1)c1nnc(-c2ccccc2)o1 (stereo unspecified)	-9.5%	-4%	-9%	1%	?	?	?	-13%
Cc1cccc(NS(=O)(=O)c2c(C)nc3sccn3c2=O)c1C	-4.8%	nt	nt	6%	nt	39%[activator]	16%[46.1 µM]	nt
O=[N+]([O-])c1ccc2[nH]c(O)c(N=NC3CS(=O)(=O)CC3O)c2c1 (stereo unspecified)	nt	0%	4%	nt	nt	-22%	nt	0%
C[n+]1ccccc1COc1ccc(C(C)(C)C)cc1	-2.9%	-7%	-13%	-13%	?	-13%	-21%	2%
O=S1(=O)CCC(SCc2nc3sccn3c2Br)C1 (stereo unspecified)	1.7%	1%	-11%	13%	1%	nt	7%	-2%
CC1CCN(CC(=O)Nc2ccccc2-c2ccccc2)CC1	0.1%	0%	0%	-14%	-15%	-13%	0%	2%
CCOC(=O)c1oc2ccc(S(=O)(=O)N3CCC(C)CC3)cc2c1C	-3.1%	-17%	-2%	3%	-8%	3%	-18%	-1%
Cc1cc(C)nc(-n2nc(C)cc2NC(=O)c2cc(=O)c3ccccc3o2)n1	4.9%	-3%	nt	-1%	nt	nt	nt	-1%
CCC(=O)Nc1nc(-c2cc([N+](=O)[O-])cs2)cs1	nt	4%	-25%	nt	nt	-4%	nt	3%
CCN(CC)C(=O)c1sc2c(c1C)c(=O)n(-c1ccc(OC)cc1OC)c(=O)n2CC(=O)c1ccccc1	nt	nt	-15%	nt	4%[46.1 µM]	28%	-24%[46.1 µM]	-1%
CC1(C)C2CC=C(/C=N/NC(=O)c3ccc(Cl)cc3)C1C2 (stereo unspecified)	-2.2%	3%	21%	?	-1%	-22%	8%	28%
CCN(CC)S(=O)(=O)c1ccc(NC2=NS(=O)(=O)c3ccccc32)cc1	2.2%	7%	-3%	-14%	18%	nt	-10%	-4%
O=C(CCNS(=O)(=O)c1ccccc1F)N1CCN(Cc2ccccc2)CC1	nt	nt	9%	nt	20%	13%	7%	-8%
c1csc(C2C3=C(Nc4ncnn42)c2ccccc2OC3)c1 (stereo unspecified)	-10%	-5%	-18%	-1%	18%[46.1 µM]	?	-14%	-3%
CCN(CC)c1cc(C)c2cc(NC(=O)/C=C/c3ccccc3OC(C)C)ccc2n1	-14%	nt	nt	?	?	-29%	-16%[46.1 µM]	nt
Oc1ccccc1N1CCN(C(c2ccccc2)c2ccccc2)CC1	nt	-10%	-16%	nt	-28%[46.1 µM]	-3%	-25%	-71%
COc1ccc(-n2nc3ccc(NC(=O)c4cc5ccccc5o4)cc3n2)cc1Cl	8.0%	nt	nt	-1%	nt	-17%	3%[46.1 µM]	nt
COc1cccc(Cn2c(=O)n(-c3ccccc3C)c(=O)c3c2c2cc(C)ccc2n3C)c1	-9.2%	nt	nt	-1%	nt	-24%	?	nt
Cc1nc2ccc(NC(=O)COc3cccc(F)c3)cc2s1	nt	-6%	3%	nt	nt	16%	nt	-20%
Cc1ccc(-c2c(C(=O)O)c(C(=O)O)c3n2CSC3)cc1	nt	6%	8%	nt	nt	1%	nt	1%
O=C(c1c2c(nc3ccccc13)C(=O)N(C1CCCCC1)C2)N1CCN(c2ccc(F)cc2)CC1	0.2%	nt	nt	-6%	nt	-28%	0%[46.1 µM]	nt
C=CCn1c(-c2ccc(OC)cc2)csc1=Nc1c(C)n(C)n(-c2ccccc2)c1=O	3.4%	-8%	-15%	0%	-8%	22µM*	-6%	1%
COc1ccc(NC(=O)CN(C)C(=O)CCc2nc3cc(S(=O)(=O)N4CCOCC4)ccc3n2C)cc1	nt	nt	-6%	nt	?	-9%	10%	8%
Cn1c(C(=O)O)c(CC(=O)Nc2ccc3c(c2)OCCO3)c2ccccc21	-4.3%	?	7%	4%	7%	-19%	1%	7%
CC(=O)Nc1cccc(-c2nnc(SCC(=O)c3cc([N+](=O)[O-])ccc3Cl)o2)c1	-6.2%	nt	nt	-9%	-11%[46.1 µM]	?	-13%[46.1 µM]	nt
CC(=O)c1cccc(-n2nnnc2SCC(=O)NNC(=O)C2CCCCC2)c1	nt	nt	7%	nt	-17%[46.1 µM]	-5%	-4%	6%
O=c1[nH]c(-c2ccc(Cl)cc2)cs1	nt	nt	5%	nt	14%[46.1 µM]	-12%	4%	-3%
Cc1ccc(Cl)cc1NC(=O)CC(O)(C(F)(F)F)C(F)(F)F	-0.7%	-107%	-10%	-10%	?	nt	?	-29%
O=C(COc1ccccc1)N(Cc1cccnc1)c1nc2c(F)cc(F)cc2s1	-6.3%	nt	nt	-13%	nt	19%	15%[46.1 µM]	nt
CCc1cc(=O)oc2cc(C)cc(OC(=O)c3ccco3)c12	-2.1%	-8%	-18%	0%	1%	-24%	-9%	-1%
COc1ccc(-c2nc3scc(CCNS(=O)(=O)c4ccc(F)cc4C)n3n2)cc1	-5.3%	nt	nt	-6%	nt	-9%	10%[46.1 µM]	nt
COC(=O)COc1ccc(S(=O)(=O)NCCC2=CCCCC2)cc1C	-19%	-40%	-4%	-10%	10%	18%	5%	-16%
Cn1c(SCC(=O)NC2CCCCC2)nnc1-c1ccccc1F	nt	-9%	3%	nt	13%[46.1 µM]	-29%	14%	-1%
Cc1nc2c(C(=O)NCc3cccs3)cnn2c(C)c1Cc1ccccc1	-14%	16%	nt	-3%	-29%	nt	-8%	9%
Cc1cccc2cc(CN(CC3CCCO3)C(=O)c3ccco3)c(=O)[nH]c12 (stereo unspecified)	-1.4%	3%	3%	-1%	-1%	-8%	12%	10%
CC(=O)NCCc1nc2ccccc2n1Cc1cc(C)ccc1C	nt	-2%	25%	nt	-19%	-11%	-2%	1%
COc1ccccc1C(=O)N/C(=C/c1ccc(Br)cc1)C(=O)NCCO	0.0%	-1%	8%	4%	6%	nt	?	-2%
CCCn1c(CCc2ccccc2)n[nH]c1=S	nt	2%	10%	nt	-37%	-14%	-20%	0%

The list goes on:
SMILES	Cruzain inh Det	NS1 inh	RE007 growth inh	Cruzain inh noDet	Marburg entry inh	2A StopGo	Lassa entry inh	SARS PLP yeast
COc1ccc(CNC(=O)C2CCCN2C(=O)NC2CCCCC2)cc1 (stereo unspecified)	3.7%	5%	-11%	-3%	-4%	5%	0%	-4%
Cc1ccc(C(=O)Nc2ccncc2)c(C)c1	nt	-37%	-5%	nt	-9%	-1%	-25%	-7%
COc1ccc(NC(=O)CC2C(=O)N(c3ccc(C)cc3)C(=O)N2Cc2ccc(C)cc2)cc1 (stereo unspecified)	-0.2%	nt	nt	-8%	-7%[46.1 µM]	-15%	-2%[46.1 µM]	nt
COc1ccc(/C=N/NC(=O)Nc2cccc3nsnc23)cc1OC	-4.8%	-3%	-2%	13%	15%	-29%	1%	14%
O=C(NCc1ccccc1)c1cccn(Cc2ccccc2)c1=O	nt	-11%	16%	nt	nt	3%	nt	1%
Cc1ccccc1NC(=O)Cc1cccs1	nt	4%	0%	nt	nt	-9%	nt	-4%
Cc1ccccc1Cn1cc(CCC(=O)N2CCOCC2)c2ccccc21	nt	0%	-5%	nt	nt	5%	nt	0%
COc1ccccc1CC(=O)N1CCCC(CCC(=O)NCc2ccccc2F)C1 (stereo unspecified)	nt	0%	12%	nt	nt	1%	nt	1%
COC(C/C=C/[C@H](O)COCc1ccccc1)OC	nt	-3%	19%	nt	nt	-4%	nt	2%
COc1cccc(NC(=O)CN2CCCCCC2)c1	nt	-9%	7%	nt	nt	23%	nt	0%
Cc1ccc(NC(=O)/C(=C\c2ccccc2)NC(=O)c2ccco2)cc1	nt	-1%	-1%	nt	?	16%	?	-1%
CCC1=NN(C(=O)c2cccc(Br)c2)C(O)(c2ccc(Br)cc2)C1 (stereo unspecified)	-5.8%	-42%	8%	-6%	?	0%	2%	-84%
O=C(CNC(=O)c1ccccn1)N/N=C/c1ccc2c(c1)OCO2	nt	nt	-2%	nt	3%[46.1 µM]	60%[activator]	2%	-2%
O=C(C1=NN[C@@H]2C(=O)N(c3cccc(C(F)(F)F)c3)C(=O)[C@H]12)c1ccc2ccccc2n1	-14%	19%	-1%	7%	21%	-23%	8%	-14%

Screens (PubChem)
